Assay outcomes deposited in PubChem BioAssay by National Center for Advancing Translational Sciences (NCATS).
Vaccinia mCherry: inhibitors of vaccinia virus infection (mCherry reporter signal); Potency, µM (doses to about 36.5 µM), for the others: top-dose activity change, negative = inhibition, actives largely listed as inhibitors; 310,000 tested, 0.63% active; Vaccinia virus mCherry reporter infection, fluorescence; about a quarter of the inactives have no number; AID 720579; active = well fitted inhibition curve with a large enough effect; inconclusive = small, poorly fitted or top-dose-only effect; inactive = no such curve, though single readings can be large or run the other way; tested in A549 cells; note: nearly all actives have a fitted effect of over 35% in size; inactives centre near -10
VACV Venus inh: vaccinia inhibition (Venus reporter) | Vaccinia virus Venus reporter expression, fluorescence | AID 720580 | 330,000 tested, 0.46% active | Potency, µM (top dose mostly 36.5 µM), for the others: at the highest dose activity change, negative = inhibition, usual class: inhibitors; active means well fitted inhibition curve with a large enough effect; inconclusive means small, poorly fitted or top-dose-only effect; inactive means no such curve, though single readings can be large or run the other way; tested in A549 cells; note: nearly all actives have a fitted effect of over 30% in size; inactives centre near -10
* marks the source's active call; other numbers are inactive results; i = inactive; u = inconclusive; x = no result given; & = joins results of further samples; [ ] = another dose, or the depositor's remark. % is set by controls: 0 for no effect and ±100 for the full control effect; potency is the fitted concentration of half-maximal effect. Hits appear at their usual frequency. Share with any hit: about 0.87%.

SMILES	Vaccinia mCherry	VACV Venus inh
Fc1ccccc1CSc1ccc(-c2ccco2)nn1	i	-3%
Cc1ccc2oc3c(c(=O)c2c1)C(c1ccc(O)cc1)N(CCCN(C)C)C3=O (stereo not given)	-1%	-8%
CC(=O)N1CCOc2ccc(S(=O)(=O)NCC3CCC(C(=O)NCCC(C)C)CC3)cc21 (stereo not given)	-14%	-5%
COc1ccc(NC(=O)CN(C)CC(=O)Nc2cccc(F)c2)cc1S(=O)(=O)N1CCCCC1	-18%	-24%
CO[C@@]1(NC(=O)CSCC#N)C(=O)N2C(C(=O)O)=C(CSc3nnnn3C)CSC21 (stereo not given in full)	-6%	-2%
Cc1nc2sc(C(c3ccccc3)N3CCN(CCO)CC3)c(O)n2n1 (stereo not given)	-24%	-8%
CCc1nc2oc(C(=O)c3ccccc3)c(N)c2c2c1COC(C)(C)C2	-11%[1.46 µM]	-13%
c1ccc(C2=Nc3ccccc3NC(c3ccccc3)C2)cc1 (stereo not given)	i	-3%
CCN(C(=O)CSc1nc2ccc(OC)cc2[nH]1)c1c(N)n(Cc2ccccc2)c(=O)[nH]c1=O	-10%	-16%
COc1ccccc1-c1noc(CSc2nc(N)cc(=O)[nH]2)n1	8%	5%
CCCSCCCNC(=O)c1cc2n(n1)CCCN(Cc1ccc(C)cc1)C2=O	-17%	-16%
CSc1ccc(CN2CCC2(C)C(=O)NC2CCN(Cc3ccccc3)CC2)cc1 (stereo not given)	-19%	-22%
Cc1ccc(C(C)(C)C)c(OCCN2CCCC2)c1	i	-12%
CN(C)CCNc1ccc2nnn3c4ccc(O)cc4c(=O)c1c23	u	u
Cc1c(O)c(O)cc2c1CC=C1[C@]3(C)CC[C@]4(C)CC[C@@](C)(C(=O)O)CC4[C@]3(C)CC[C@]12C (stereo not given in full)	-19%	-15%
N#Cc1nc(-c2ccc(OCc3ccc(Cl)cc3)cc2)oc1N1CCC(C(N)=O)CC1	-8%&32%	-6%&-9%
COCCNc1nc(Oc2cncc(Cl)c2)c2sccc2n1	26%	-10%
O=C(CSC1=NS(=O)(=O)c2ccccc2N1)c1ccccc1	-14%	-3%
Cn1c(-c2ccncc2)nc2cc(C(=O)N[C@H]3CCCCNC3=O)cc(NC(=O)C3CCC3)c21	-13%	-12%
COc1cccc(OC)c1C(=O)Nc1ccccc1N1CCCC1	i	-8%

Compound profiles, from the list above. Screens in order: Vaccinia mCherry	VACV Venus inh
COc1cccc(OC)c1C(=O)Nc1ccccc1N1CCCC1 across the screens: i	-8%
CSc1ccc(CN2CCC2(C)C(=O)NC2CCN(Cc3ccccc3)CC2)cc1 (stereo not given) across the screens: -19%	-22%

Further entries follow.
SMILES	Vaccinia mCherry	VACV Venus inh
O=C1c2ccccc2S(=O)(=O)N1CC(O)Cn1ccc2ccccc21 (stereo not given)	i	-5%
O=S(=O)(NCC(c1ccco1)S(=O)(=O)c1cccs1)c1ccccc1 (stereo not given)	-11%	-12%
O=C(C[n+]1cc(-c2ccc(Cl)c(Cl)c2)n2c1CCC2)OCc1ccccc1	-11%	-10%
Cc1ccc(NC(=O)CSc2nc3[nH]ncc3c(=O)[nH]2)cc1Cl	-3%	3%
O=C(C1=C[C@H](c2ccc(C(F)(F)F)cc2)C[C@H](OCc2ccc(CO)cc2)O1)N1CCN(Cc2ccccc2)CC1	u	u
COc1ccc(-n2c(=O)c3c4c(sc3n(Cc3ccc(F)cc3)c2=O)CN(C(C)=O)CC4)c(OC)c1	-20%	-7%
COc1ccccc1NC(=O)OC(C)c1ccc(Cl)cc1 (stereo not given)	i	-2%
CCCOc1ccc(C2c3c(-c4ccccc4O)n[nH]c3C(=O)N2Cc2ccncc2)cc1OCC (stereo not given)	-9%	-22%
Cc1ccc2cccc(NC(=O)c3ccc(-c4cc(Cl)ccc4Cl)o3)c2n1	-8%	1%
CSCCC(NS(=O)(=O)c1ccc(C)cc1)C(=O)NC1CCCCCC1 (stereo not given)	-12%	-10%
Cc1ccc(-c2cnc(C3CC3)o2)cc1S(=O)(=O)Nc1cccc(C#N)c1	-27%	-26%
COC(=O)C1C(=O)OC(C)(C)C1C(C)C(=O)c1ccc(C)cc1C (stereo not given)	-5%	-3%
CC(C)N(C(=O)CSc1nnnn1-c1ccc2c(c1)OCO2)C(C)C	i	-7%
Cn1nc(C(=O)N2CCN(c3ccc(F)cc3)CC2)c2c1-c1ccccc1S(=O)(=O)C2	i	-12%
O=[N+]([O-])c1ccc(/C=N\NS(=O)(=O)c2ccc(F)cc2)o1	-3%	-11%
COc1ccc2c(c1OC)C(=O)NC(C)=C(C(=O)OC(C)(C)C)C2O (stereo not given)	i	-15%
CCCC(C)NC(=O)CSc1nnc2ccccn12 (stereo not given)	-13%	-2%
Cc1cc(C)cc(NC(=O)Cn2nnc(C(=O)NCc3ccccc3Cl)c2N)c1	u	u
CCn1c(Cc2ccccc2)nnc1SCC(=O)N1CCCC1=O	i	-16%
COc1ccccc1NC(=O)COc1ccc(/C=N/NC(=O)CSCc2cc(C)cc(C)c2)cc1	-9%	5%
COc1cccc(C(=O)Nc2ccc(NC(=O)c3ccco3)cn2)c1	x	-3%
CCOC(=O)c1ccc(-c2ccc(/C=N/NC(=O)CN(c3ccccc3Br)S(C)(=O)=O)o2)cc1	i	-7%
COc1ccc(C(=O)Nn2c(CC(C)C)nc3cc(Cl)ccc3c2=O)c(OC)c1	i	-6%
COc1ccc(NC(=O)CSc2c3c(nc4ccccc24)CCC3)cc1Cl	-6%	-11%
CCNC(=O)C1CCCN(C(=O)c2cc(F)cc(F)c2)CC1 (stereo not given)	i	3%
O=C1C2C3C=CC(C3)C2C(=O)N1c1nc2ccccc2s1 (stereo not given)	x	11%
Cc1occc1-c1nnc(SCC(=O)N2CC(=O)Nc3ccccc32)n1CC(C)C	-16%	-3%
COc1ccc(CNC(=O)CNC(=O)c2c(C)nn(C)c2Cl)cc1	i	5%
CCCN(CCC)S(=O)(=O)c1ccc(C)cc1	-19%	-11%
Cc1ccc(CN2C(=O)CC(c3ccc(Cl)cc3)c3c(C)nn(-c4nc(C)cc(C)n4)c32)cc1 (stereo not given)	-13%	-18%
CCOC(=O)c1ccc(CN(Cc2ccccc2)S(=O)(=O)c2ccc(Cl)cc2)cc1	-1%	-15%
O=C(Cc1cccs1)Nc1cccc([N+](=O)[O-])c1	-2%	-8%
CCCN(C(=O)c1cc(C)ccc1C)c1c(N)n(Cc2ccccc2)c(=O)[nH]c1=O	-25%	-17%
COc1cc(NC(=O)CN2C(=O)c3ccccc3S2(=O)=O)c(OC)cc1Cl	-8%	-13%
CCOC(=O)c1[nH]c2ccccc2c1NC(=O)c1cc(OC)cc(OC)c1	-1%	-4%
COc1ccccc1NC(=O)C1C2C=CC3(CN(Cc4cccnc4)C(=O)C13)O2 (stereo not given)	i	-9%
COc1ccc([C@@H]2[C@@H]3C(=O)N(C(C)(C)C)C(=O)[C@@H]3[C@]3(CC(C)C)C(=O)N(c4cccc(F)c4)C(=O)N23)cc1	-6%	-13%
O=c1c2[nH]c3ccccc3c2ncn1Cc1cccnc1	-20%	-18%
Cc1cc(C)c(-c2c(O)c3c(n(C)c2=O)CC(C)(C)CC3=O)c(C)c1	-21%	-14%
O=S(=O)(NCC(c1ccco1)S(=O)(=O)c1ccccc1)c1cc(F)ccc1F (stereo not given)	-17%	-14%
Cn1cc(CN2CCCC(CO)(Cc3ccccc3)C2)c2ccccc21 (stereo not given)	-16%	3%
Cc1cccn2c(CNC3CCCc4ccccc43)c(C(=O)N3CCCCC3)nc12 (stereo not given)	-27%	-5%
NC(Cc1ccc(F)cc1)c1csc(NC(=O)NC(c2ccccc2)c2ccccc2)n1 (stereo not given)	u	u
Cc1ccsc1/C=C1\Oc2cc(OCC(=O)c3ccccc3)ccc2C1=O	-10%	9%
COc1ccc(S(=O)(=O)NCc2cccnc2)cc1OC	i	-13%
CCCCNC(=S)Nc1ccc([N+](=O)[O-])cc1	u	u
S=C(Nc1ccccc1)Nc1ccc(Cl)cn1	-7%	1%
Cc1nc2ccc(NC(=O)NCCCO)cc2s1	x	-1%
CCn1c(SCC(=O)NCc2ccc3c(c2)OCO3)nnc1-c1cccs1	i	-19%
CCOC(=O)c1ccc(N=Cc2c(O)n(-c3ccc(OC)cc3)c(=S)[nH]c2=O)cc1	-4%	-26%
Cc1cc(C)cc(C(=O)NCCc2sc(-c3ccc(F)cc3)nc2C)c1	-4%	3%
COc1ccc2oc(C(=O)OC(C)C(=O)N3C(C)CCCC3C)c(C)c2c1 (stereo not given)	i	0%
CC(C(=O)NCc1ccccc1)N1C(=O)c2ccccc2C1=O (stereo not given)	-11%	-7%
COc1ccc(NC(=O)CN2CCN(Cc3ccc4c(c3)OCO4)CC2)cc1OC	i	-14%
Cc1ccc(SCC(=O)NNC(=O)CNC(=O)c2ccc(Br)cc2)cc1	i	-1%
COc1ccc(CNC(=O)c2ccc3c(c2)N(Cc2cccc(Cl)c2)C(=O)c2ccccc2S3)c(OC)c1	-11%	-8%
COC(=O)CNC(=O)C1CCCN1C(=O)CNC(=O)OCc1ccccc1 (stereo not given)	i	-3%
CC(C)(C)C(=O)NC(=S)Nc1ccc(Cc2ccncc2)cc1	u	-11%
CCC(C)c1ccc(NC(=S)NCCn2cc(Br)cn2)cc1 (stereo not given)	i	-5%
O=[N+]([O-])c1cccc(-c2nc(-c3cccs3)c(-c3cccs3)[nH]2)c1	-26%	u

14 consecutive entries already listed, for reference:
SMILES	Vaccinia mCherry	VACV Venus inh
NC(Cc1ccc(F)cc1)c1csc(NC(=O)NC(c2ccccc2)c2ccccc2)n1 (stereo not given)	u	u
Cc1ccsc1/C=C1\Oc2cc(OCC(=O)c3ccccc3)ccc2C1=O	-10%	9%
COc1ccc(S(=O)(=O)NCc2cccnc2)cc1OC	i	-13%
CCCCNC(=S)Nc1ccc([N+](=O)[O-])cc1	u	u
S=C(Nc1ccccc1)Nc1ccc(Cl)cn1	-7%	1%
Cc1nc2ccc(NC(=O)NCCCO)cc2s1	x	-1%
CCn1c(SCC(=O)NCc2ccc3c(c2)OCO3)nnc1-c1cccs1	i	-19%
CCOC(=O)c1ccc(N=Cc2c(O)n(-c3ccc(OC)cc3)c(=S)[nH]c2=O)cc1	-4%	-26%
Cc1cc(C)cc(C(=O)NCCc2sc(-c3ccc(F)cc3)nc2C)c1	-4%	3%
COc1ccc2oc(C(=O)OC(C)C(=O)N3C(C)CCCC3C)c(C)c2c1 (stereo not given)	i	0%
CC(C(=O)NCc1ccccc1)N1C(=O)c2ccccc2C1=O (stereo not given)	-11%	-7%
COc1ccc(NC(=O)CN2CCN(Cc3ccc4c(c3)OCO4)CC2)cc1OC	i	-14%
Cc1ccc(SCC(=O)NNC(=O)CNC(=O)c2ccc(Br)cc2)cc1	i	-1%
COc1ccc(CNC(=O)c2ccc3c(c2)N(Cc2cccc(Cl)c2)C(=O)c2ccccc2S3)c(OC)c1	-11%	-8%

The listing continues.
SMILES	Vaccinia mCherry	VACV Venus inh
Cc1ccc(NC(=O)COc2ccc3oc4c(c3c2)CCCC4)nc1	x	-10%
Cc1cc(NC(=O)CN2C(=O)CSc3ccc(S(=O)(=O)N(C)C)cc32)ccc1Br	-28%	-8%
COc1ccc(OC)c(NC(=O)Nc2nc(C(C)N)cs2)c1 (stereo not given)	11%	-18%
CC[C@@H](C)[C@@H]1CN([C@@H](C)CN2CCC[C@H]2CN2C(N)=NC[C@H]2CC(C)C)C(=N)N1CCc1ccc(Cl)c(Cl)c1	i	-10%
CCN(CC)c1ccc(/C=C(/C#N)c2nc3ccc(C)cc3[nH]2)c(OC(C)C)c1	-25%	44%[activator]
CCN(CC)C(=O)CN(c1cc(Cl)ccc1OC)S(=O)(=O)c1ccc(C)c([N+](=O)[O-])c1	-10%	-10%
CCCCCCCCNS(=O)(=O)CCNCc1ccccc1	-2%	-5%
CCSC1=C(C#N)C(c2ccc(OC)c(OC)c2)CC(=O)N1 (stereo not given)	x	-6%
COc1ccc2[nH]c3c(Cl)ncnc3c2c1	0%	-11%
COc1ccc(/C=N/Nc2cc(C)nc(N3CCOCC3)n2)c(OC)c1	-19%	4%
Cc1ccc(S(=O)(=O)NC(=O)C2(C)CCN2C(=O)CCc2ccc(Cl)cc2Cl)cc1 (stereo not given)	56%[activator]	1%
O=C(O)Cc1ccc(C(=O)c2ccccc2F)s1	-8%	2%
CCC1CCC(NC(=O)Nc2cccc(OC)c2)CC1 (stereo not given)	-14%	-18%
COC(=O)c1ccc(C2C(C(=O)c3cc4ccccc4o3)=C(O)C(=O)N2CCCN(C)C)cc1 (stereo not given)	x	-4%
CCOc1ccc(S(=O)(=O)N(CC)CC)cc1NC(=O)c1ccc(N2CCCC2=O)cc1	-20%	-8%
COC(=O)CCCNC(=O)OCc1ccc([N+](=O)[O-])cc1	x	-4%
CCc1nnc(SCC(=O)NC2CC2)n1CC	-1%	-12%
CCCCC(=O)NC(c1ccccc1)c1ccc2cccnc2c1O (stereo not given)	1.6µM*	u
Cc1ccc(-c2noc(CN(C)C(=O)c3ccoc3C)n2)cc1	-3%	-15%
Cn1c(=O)c2c(ncn2CC(=O)OCC(=O)Nc2ccccc2Cl)n(C)c1=O	i	-6%
Cn1c(Cc2ccccc2)nnc1SCC(=O)NC1CCCCC1	-14%[1.46 µM]	-12%
